HSD17B inh: qHTS Assay for Inhibitors of HSD17B4, hydroxysteroid (17-beta) dehydrogenase 4; 75,000 compounds, 7.6% hits; recombinant HSD17B10, NADH fluorescence kinetic; many of its hits are not listed in these tables; 3-hydroxyacyl-CoA dehydrogenase type-2 (Homo sapiens), Q99714; Potency, µM (doses to about 57.1 µM), for the others: at the highest dose activity change, negative = inhibition, usual class: inhibitors; active = well fitted inhibition curve with a large enough effect; inconclusive = small, poorly fitted or top-dose-only effect; inactive = no such curve, though single readings can be large or run the other way;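 also: the protocol describes HADH2 (HSD17B10) and not the HSD17B4 of the title; nearly all actives have a fitted effect of over 70% in size; most hits overshoot -100% by far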
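Activity followed as NADH fluorescence increase (ex 360, em 450 nm) every 30 seconds for 4 min, using final 90 uM beta-hydroxybutyryl CoA and 1 mM NAD+. Recombinant His-tagged enzyme, 20 nM, pH 9.0 Tris buffer, 15 min compound preincubation.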
* = called active by the depositor; ? = inconclusive; [ ] = dose if it differs, or a comment. % is scaled to controls: 0 for no effect and ±100 for the full control effect; potency is read from the fitted curve at half-maximal effect.

SMILES | HSD17B inh
CCOC(=O)Cn1cnc2c(nnn2-c2ccc(C)cc2)c1=O | -3%
CCn1cc(SCC(=O)NCC2CCCO2)c2ccccc21 (stereo unspecified) | 7%
COc1ccc(C(=O)c2ccc(N3CCN(C4CC(=O)NC4=O)CC3)cc2)cc1F (stereo unspecified) | -18%
Cc1ccc2nc(-c3ccccn3)cc(C(=O)NC3CCN(C)CC3)c2c1 | 13µM*
COc1ccc(-c2nnc(CSc3ncnc4sc5c(c34)CCC5)o2)cc1OC | -23%
Nc1ncc(-c2cc3ccccc3oc2=O)s1 | -2%
Cc1nc(SCc2ccccc2)c(C(F)(F)F)c(=O)[nH]1 | 1%
CCOC(=O)c1cc(-c2cccs2)nn1CCC#N | 5%
CC(=O)Nc1ccc(S(=O)(=O)Nc2nnc(C3CCCCC3)s2)cc1 | ?
CCSCCNC(=O)c1cc(-n2cnnc2)ccc1Cl | 2%
CCOCCCN1C(=O)CN(C2CCCCC2)C(=O)C1c1ccc(OC)c(OC)c1 (stereo unspecified) | 2%
CCOc1ccc(NC(=O)C(C)Sc2nnc(C)n2C)cc1 (stereo unspecified) | -1%
O=C(c1cnccn1)N1CCC2(CCCN(c3ccccn3)C2)CC1 | 4%
Cc1ccc(C(=O)OCc2cn3ccccc3n2)cc1 | -5%
CCN(CC)CCCC(C)NC1=NCCCCC1 (stereo unspecified) | 2%

Later entries
SMILES | HSD17B inh
Cc1cc(C)n(-c2ccc(C(=O)NCc3ccc4c(c3)OCO4)cc2)n1 | 6%
Cc1ccc(Cn2c(SCC(N)=O)nc3c2c(=O)n(C)c(=O)n3C)cc1 | 5%
O=c1c2ccccc2nc(SCc2nc3ccccc3s2)n1Cc1ccco1 | 11%
CC(=O)Nc1cccc(Oc2ccc(-c3noc(C)n3)cc2)c1 | 15%
C(=C\CSc1nnnn1-c1ccccc1)/CSc1nnnn1-c1ccccc1 | -6%
Cc1ccc(CCNC(=O)CN2CCN(Cc3ccccc3F)C2=O)cc1 | 4%
Cn1ccnc1Sc1nnnn1-c1ccccc1 | 7%
CCN1C(=O)N(C)C2(c3ccccc3)N(C)C(=O)N(C)C12c1ccccc1 (stereo unspecified) | 1%
CCCCOC(=O)C1=C(C)Nc2ncnn2C1c1ccc(OC)c(OC)c1OC (stereo unspecified) | 1%
CC(C)N(C(=O)COc1ccc(Br)cc1Cl)C(C)C | -1%
COc1cc2[nH]c3c(N4CCN(c5ccccn5)CC4)ncnc3c2cc1OC | 32µM*
COc1ccccc1-c1nc2n(n1)C(c1ccccc1Cl)C(C(N)=O)=C(C)N2 (stereo unspecified) | -11%
O=C1CCCCCC1C1(O)C(=O)Nc2ccccc21 (stereo unspecified) | 1%
CCCOc1c(OC)cccc1C1CC(=O)Nc2cc(OC)c(OC)c(OC)c21 (stereo unspecified) | 8%
CC1(C)CC(=O)C2=C(C1)N(c1ccccc1)C(N)=C(C#N)C2c1cccnc1 (stereo unspecified) | -6%

Exported as labelled records: four of the compounds above
Cc1ccc(Cn2c(SCC(N)=O)nc3c2c(=O)n(C)c(=O)n3C)cc1
  HSD17B inh: 5%

CCOC(=O)Cn1cnc2c(nnn2-c2ccc(C)cc2)c1=O
  HSD17B inh: -3%

Cc1ccc(C(=O)OCc2cn3ccccc3n2)cc1
  HSD17B inh: -5%

Cc1ccc2nc(-c3ccccn3)cc(C(=O)NC3CCN(C)CC3)c2c1
  HSD17B inh: 13µM*

Continuation.
SMILES | HSD17B inh
COc1ccc(-c2nnc(SC(=O)N3c4ccccc4Sc4ccccc43)o2)cc1 | ?
O=C1c2ccccc2C(=O)N1Cc1nc(-c2ccncc2)no1 | 15%
O=C(NCc1cccnc1)C1CCN(S(=O)(=O)N2CCC3(CC2)OCCO3)CC1 | 6%
COc1cccc(-c2cc(=O)c3ccc(OC)cc3o2)c1 | 7.9µM*
COc1cccc(Nc2ncccc2C(=O)O)c1 | 1%
Cc1ccc(NS(=O)(=O)c2cc(C(=O)O)ccc2Cl)cc1C | -1%
Cc1ccc(N(CC(=O)NCC2CCCO2)S(C)(=O)=O)cc1Cl (stereo unspecified) | 11%
CCOC(=O)c1ccc(N2C(=O)CC(C3CCCO3)C2=O)cc1 (stereo unspecified) | 5%
Nc1c(S(=O)(=O)c2cccc(Cl)c2)c2nc3ccccc3nc2n1CCN1CCOCC1 | 1%
COC(=O)C1=C(N)Oc2cc(C)n(CC3CCCO3)c(=O)c2C1c1ccccc1 (stereo unspecified) | 5%
C[C@@H](CN1CCC(Cc2ccccc2)CC1)[C@@H](O)c1ccc(O)cc1 | 4%
CCC(=O)Nc1ccccc1C(=O)N1CCN(Cc2ccccc2)CC1 | 0%
Cn1c(=O)c2c(nc(CN3CCN(c4ccccc4F)CC3)n2CCCc2ccccc2)n(C)c1=O | 10%
COC(=O)c1cc2sc(Cl)cc2n1CC(=O)Nc1ccc(OC)c(OC)c1OC | -8%
CC1CC(C)(C)NCCNC(C)CC(C)(C)NCCN1 (stereo unspecified) | -2%

(further entries)
SMILES | HSD17B inh
Cc1nnc(NC(=O)CCC(=O)N2CCC(C)CC2)s1 | 2%
Cn1c(CCc2ccccc2)nnc1SCC(=O)N1CCCC1 | 8%
CCOC(=O)Cc1c(C)nc2c(-c3ccc(Cl)cc3)c[nH]n2c1=O | 32µM*
O=C(O)C1CCC(=O)N1C1CCCC1 (stereo unspecified) | 3%
COc1ccc(NC(=O)Nc2ccc(N(C)C)cc2)cc1 | -8%
COCCOC(=O)C1=C(C)Nc2ncnn2C1c1ccc(F)cc1 (stereo unspecified) | 3%
NC(=O)CSc1nnc(-c2ccc(S(=O)(=O)N3CCOCC3)cc2)n1CC1CCCO1 (stereo unspecified) | ?
CCN=C1SC(CC(=O)Nc2sc3c(c2C#N)CCCC3)C(=O)N1CC (stereo unspecified) | -4%
Cc1ccc2oc3c(c(=O)c2c1)C(c1cccs1)N(CCCN(C)C)C3=O (stereo unspecified) | 1%
CCN(CC)CCN1C(=O)C(=O)/C(=C(/O)c2ccncc2)C1c1ccccc1 (stereo unspecified) | 1%
O=C(Nc1sc2c(c1C(=O)NCC1CCCO1)CCCC2)c1cccs1 (stereo unspecified) | 20%
COc1cccc(N2CC(C(=O)Nc3ccc(C(=O)OC(C)C)cc3)CC2=O)c1 (stereo unspecified) | -7%
CCOC(=O)c1cccc(NC(=O)CSc2nnc(-c3ccoc3C)n2CCOC)c1 | -5%
Cc1ccc(N(C(C)C(=O)Nc2ccc(S(=O)(=O)N3CCOCC3)cc2)S(C)(=O)=O)cc1 (stereo unspecified) | 5%
CN1CC(=O)NC1=NC(=O)c1cc(F)c(F)cc1Cl | 15%

Continued:
SMILES | HSD17B inh
COc1ccc(NC(=O)N(CCC(C)C)C(C)c2ccccn2)c(OC)c1 (stereo unspecified) | -1%
Cc1scc(C(=O)NCc2ccco2)c1-c1ccccc1 | -18%
Cc1onc(-c2ccccc2Cl)c1C(=O)NCCN1CCOCC1 | 18%
CCc1nnc(NC(=O)C2CCCN(c3nc(C)cc(C)n3)C2)s1 (stereo unspecified) | 5%
CCOC(=O)CNC(=O)CSc1nnc(Cn2c(=O)sc3ccccc32)n1-c1ccccc1C | -2%
CS(=O)(=O)N1CCN(c2ncccn2)CC1 | -12%
CC1CCN(S(=O)(=O)c2ccc(NC(=O)CSc3nnnn3C)cc2)CC1 | 0%
Nc1ncnc2c1nc(Br)n2[C@H]1O[C@H]2COP(=O)(O)O[C@H]2[C@@H]1O | -16%
CC1(O)c2ccccc2C(=O)N1Cc1ccccc1 (stereo unspecified) | 10%
CCOC(=O)NC(NC(=O)OCC)C(=O)c1ccc(F)cc1 | -13%
Nc1nc(CSc2ccccn2)nc(Nc2ccccc2)n1 | -2%
CCSc1sccc1C1C(C#N)=C(N)N(c2cccnc2)C2=C1C(=O)CC(C)(C)C2 (stereo unspecified) | -18%
Cc1cc(C)c2[nH]c(=O)c(CN(Cc3ccco3)C(=O)C3CCCO3)cc2c1 (stereo unspecified) | ?
CCN(CC)C(=O)CSc1nc(O)cc(=O)n1CC | 5%
O=C(c1ccco1)N1CCN(C(=O)c2ccc(COc3ccc(F)cc3)o2)CC1 | -7%

(list continues)
SMILES | HSD17B inh
O=C(c1csnn1)N1CCC2(CC1)CN(Cc1cc(C(F)(F)F)cc(C(F)(F)F)c1)C2 | 1%
CC(=O)Nc1c(I)c(C(=O)N[C@H]2[C@@H](O)[C@H](O)[C@H](CO)O[C@@H]2O)c(I)c(N(C)C(C)=O)c1I | 0%[25.6 µM]
c1coc(Cn2c(SCc3nc4ccccc4[nH]3)nnc2-c2cnccn2)c1 | -9%
COc1ccc(-c2nnc3sc(-c4ccccn4)nn23)cc1 | ?
O=c1c2c3c(sc2n(CCN2CCCC2)c(=O)n1Cc1ccco1)CCCCC3 | 2%
O=C(O)CC(CNS(=O)(=O)c1ccccc1)c1ccccc1 (stereo unspecified) | 3%
O=C(c1cc(C2CC2)on1)N1CCOCC1 | 1%
O=C(CSc1nncs1)N1c2ccccc2Sc2ccccc21 | -7%
CCN(CC)CCOc1cccc(C(C)C)c1 | -3%
CN(C)CC(O)COc1cc2ccccc2cc1C(=O)N1CCCCC1 (stereo unspecified) | -6%
COc1ccc(Cl)cc1NC(=O)c1ocnc1C | -24%
O=C1CC(c2nc3ccccc3[nH]2)CN1c1cccc(C(F)(F)F)c1 (stereo unspecified) | 9%
CC1(C)[C@@H]2CC[C@@](C)(C2)[C@H]1OC(=O)c1ccccc1C(=O)O | 4%[11.4 µM]
CCC(C)Oc1cccc(C(=O)Nc2ccccc2N2CCOCC2)c1 (stereo unspecified) | -8%
CC(=O)[C@H](CC(C)C)NC(=O)[C@@H](CC(C)C)NC(=O)[C@H](CC(C)C)NC(=O)OCc1ccccc1 | 10%

(further entries)
SMILES | HSD17B inh
CC(C)(C)c1cc(C(F)(F)F)nc(SCCCNC(=O)c2ccco2)n1 | -2%
CCCn1c(=O)c2ccccc2n2c(SCCOc3ccc(OC)cc3)nnc12 | -3%
Oc1c(C(Nc2ccccn2)c2ccccn2)ccc2cccnc12 (stereo unspecified) | 0%
CCNc1nc(NC(C)(C)C)nc(N(CC)n2cnnc2)n1 | 13%
COc1cccc2c(=O)n(CC(=O)NC3CCCCC3)ccc12 | 32µM*
O=C(NCCCN1CCN(Cc2ccccc2)CC1)C1CCN(c2nnc(-n3cccc3)s2)CC1 | 11%
COC(=O)c1ccc(CN(c2ccccc2OC)S(=O)(=O)c2cccs2)o1 | -2%
CC1=C(/C=C/C(C)=C/C=C/C(C)=C/C=C/C=C(C)/C=C/C=C(C)/C=C/C2=C(C)CCCC2(C)C)C(C)(C)CCC1 | 0%
O=C(CSc1nnc(-c2cccnc2)n1Cc1ccco1)N1CCc2ccccc21 | 0%
CCOc1ccc(CCNC(=O)c2cccnc2N2CCCC2)cc1OCC | 19%
CCC1CCCCN1C(=O)CSc1nnc(-c2cccs2)o1 (stereo unspecified) | -25%
COc1nc(Nc2ccc(O)cc2)nc(OC(C(F)(F)F)C(F)(F)F)n1 | -29%
c1cncc(-c2nn3c(Cn4cnc5ccccc54)nnc3s2)c1 | ?
O=C(Nc1ccc2c(c1)nc1n2CCSC1)c1ccco1 | ?
C=CCn1c(SCCC(=O)O)nnc1-c1cccs1 | 25µM*

Continued; it opens with the 2 that closed the last part.
SMILES | HSD17B inh
O=C(Nc1ccc2c(c1)nc1n2CCSC1)c1ccco1 | ?
C=CCn1c(SCCC(=O)O)nnc1-c1cccs1 | 25µM*
COc1cccc(-c2cc(NCc3ccc(OC)cc3OC)ncn2)c1 | -17%
CCOC(=O)N1CCN(C(=O)c2ccc(CS(=O)(=O)c3ccccc3OC)o2)CC1 | 8%
Cc1cc(C(=O)CSc2nnc(N)s2)c(C)n1CCc1ccc(F)cc1 | -22%
Cn1c(Cn2nnc3ccccc32)nnc1SCC(N)=O | 3%
COc1cc(-c2ccc(N=C=O)c(OC)c2)ccc1N=C=O | -8%
CC1(C)NC(=O)N(c2ccc([N+](=O)[O-])c(C(F)(F)F)c2)C1=O | 5%
COCCn1c(SCC(=O)c2ccc(Cl)cc2)nnc1C(C)C | -7%
N#Cc1ccccc1NC(=O)c1ccccc1OCC(=O)Nc1ccc2c(c1)oc1ccccc12 | 8%
CC(=O)NC(CCS(C)(=O)=O)C(=O)Nc1cc(C)ccc1C (stereo unspecified) | 3%
CCOc1ccc(CNc2ccc(N3CCCC3)cc2)cc1 | -9%
CCC(C)(C)n1nnnc1C(c1cc2ccc(OC)cc2[nH]c1=O)N1CCN(C2CCCCC2)CC1 (stereo unspecified) | -4%
Cc1cccc(-n2c(N)cc(=O)nc2SCC(=O)Nc2cc(C)on2)c1 | 3%
CC(=O)O[C@H]1C[C@H]2CC[C@@H]3[C@H]4C[C@@H]([N+]5(C)CCCCC5)[C@@H](OC(C)=O)[C@]4(C)CC[C@@H]3[C@@]2(C)C[C@@H]1[N+]1(C)CCCCC1 | 4%
COC(=O)c1cc(-c2ccccc2)sc1NC(=O)c1cc(C)on1 | 40%[activator]
C=CCn1c(SCC(=O)NC(=O)NCC(C)C)nnc1C1CCCCC1 | 4%
CCOC(=O)c1ccc(NC(=O)CCNS(=O)(=O)c2ccc3c(c2)oc(=O)n3C)cc1 | -23%
Oc1ccccc1N=Cc1ccc[nH]1 | -5%
CCc1ccc(N(CC(=O)NC2CCCC2)S(=O)(=O)c2c(C)noc2C)cc1 | 5%

Assay outcomes as filed in PubChem BioAssay.

These rows are one share of the data (hit frequency here may not be typical).
